Screens (PubChem BioAssay)
Mtb H37Rv: M. tuberculosis H37Rv growth inhibitors, H37Rv strain (AID 1626); M. tuberculosis H37Rv growth inhibition; higher % means a stronger effect; inhibition, % at 10 µM, or IC50 in µM where a hit was titrated; 220,000 compounds, 0.95% hits;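 active = confirmed in a dose series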;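 note: bacteria incubated seven days before Alamar blue readout; 0% = bacteria only wells and 100% = bacteria with antibiotic wells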
Arbovirus inh: antivirals against arbovirus infection | arbovirus infection cell-based antiviral screen | inhibition, % at 10 µM | 200,000 compounds, 0.37% hits;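 active = inhibition from about 30%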;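 note: bluetongue infection of BSR cells; cell survival read as ATP light after 72 h; 0% = infected wells without compound and 100% = uninfected wells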
RecA splice inh: inhibitors of M. tuberculosis RecA intein splicing; cell-free RecA intein splicing, fluorescence; inhibition, %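 (about 9 µM by stock and volumes)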; 290,000 compounds, 0.75% hits; AID 2221; in the data active = inhibition above about 30%;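 note: 0% = vehicle wells and 100% = reference inhibitor control wells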
Target sequence (P9WHJ3 whole entry, looked up, canonical isoform): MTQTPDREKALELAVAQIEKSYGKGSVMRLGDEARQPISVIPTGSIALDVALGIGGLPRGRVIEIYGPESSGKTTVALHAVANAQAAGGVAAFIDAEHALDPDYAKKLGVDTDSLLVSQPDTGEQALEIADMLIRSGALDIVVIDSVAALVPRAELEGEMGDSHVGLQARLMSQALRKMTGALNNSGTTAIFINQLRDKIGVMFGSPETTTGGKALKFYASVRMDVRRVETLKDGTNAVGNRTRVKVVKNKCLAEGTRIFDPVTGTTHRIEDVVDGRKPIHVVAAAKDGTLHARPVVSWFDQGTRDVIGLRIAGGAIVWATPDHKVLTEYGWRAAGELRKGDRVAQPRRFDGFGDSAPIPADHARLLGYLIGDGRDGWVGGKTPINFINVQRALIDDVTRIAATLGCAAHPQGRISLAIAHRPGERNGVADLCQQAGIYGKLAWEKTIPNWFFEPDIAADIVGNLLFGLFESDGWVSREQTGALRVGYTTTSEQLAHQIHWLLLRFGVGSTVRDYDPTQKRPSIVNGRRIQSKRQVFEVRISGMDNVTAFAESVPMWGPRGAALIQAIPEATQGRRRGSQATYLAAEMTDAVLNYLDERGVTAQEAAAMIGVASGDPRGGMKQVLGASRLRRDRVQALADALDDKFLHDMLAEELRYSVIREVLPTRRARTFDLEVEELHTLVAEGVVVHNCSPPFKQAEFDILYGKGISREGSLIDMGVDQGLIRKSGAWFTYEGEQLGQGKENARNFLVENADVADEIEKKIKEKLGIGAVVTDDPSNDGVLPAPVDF
YopH inh: inhibitors of Yersinia enterocolitica YopH tyrosine phosphatase; fluorescence Ex485/Em525; inhibition, %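 (about 10 µM by stock and volumes)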; 140,000 compounds, 0.16% hits; AID 898;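 active = inhibition of 50% or more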;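 note: controls were vehicle for no effect and minimum signal wells for full effect; inactives centre near -20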
Mtb betalactam: beta-lactam sensitization of Mtb H37Rv. M. tuberculosis H37Rv growth with meropenem, percent inhibition; hits of this screen are not shown here. inhibition, % at 25 µM. 330,000 compounds, 0.27% hits. AID 434955;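 active = about 74% or more and at least 40 points above the plate without the antibiotic, then above 30% in a dose series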;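 note: growth measured after seven days incubation then overnight dye step; 0% = bacteria only wells and 100% = bacteria with antibiotic; twin plates without the antibiotic show which effects depend on it; some results filed as inactive read as strong as hits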
The depositor's hits bear a star; . = not tested or not shown. The list is partial. The share of hits here may be higher or lower than overall.

Start of the data: the first 3 entries as a preview:
1	CCOC(=O)c1ccc(NC(=O)c2nc[nH]c2C(=O)N(C)Cc2ccccc2)cc1
2	O=c1c2ccccc2c(-c2ccccc2)nn1Cc1ccc(Cl)cc1
3	CN(Cc1c(C(=O)N/N=C/c2ccc(O)cc2)nnn1-c1nonc1N)C1CCCCC1
assay / compound	1	2	3
Mtb H37Rv	4%	-3%	.
Mtb betalactam	35	38	1
YopH inh	.	10	.
RecA splice inh	-0.5	-0.6	-1.4
Arbovirus inh	.	-7	.

The listing, previewed entries included:
1	CCOC(=O)c1ccc(NC(=O)c2nc[nH]c2C(=O)N(C)Cc2ccccc2)cc1
2	O=c1c2ccccc2c(-c2ccccc2)nn1Cc1ccc(Cl)cc1
3	CN(Cc1c(C(=O)N/N=C/c2ccc(O)cc2)nnn1-c1nonc1N)C1CCCCC1
4	CCNc1nc(NCC)n2c(SCC(=O)Nc3ccccc3C(F)(F)F)nnc2n1
5	O=C(Nc1ccccc1Oc1ccccc1)c1cccs1
6	Cc1cc(OC(C)C(=O)NCCc2c[nH]c3ccccc23)c2c(C)cc(=O)oc2c1 (centres undefined)
assay / compound	1	2	3	4	5	6
Mtb H37Rv	4%	-3%	.	.	.	.
Mtb betalactam	35	38	1	-8	16	-2
YopH inh	.	10	.	.	.	.
RecA splice inh	-0.5	-0.6	-1.4	-2.0	6.5	7.8
Arbovirus inh	.	-7	.	.	.	.

7	CCOc1ccc(NC(=NCc2ccc3c(c2)OCO3)SC2CC(=O)N(c3ccc(C(=O)O)cc3)C2=O)cc1 (centres undefined)
8	O=C(CCc1c[nH]c2ccccc12)N1CCN(c2ccc(F)cc2)CC1
9	Cc1ccc(Nc2nnc(SCC(=O)NCCN3C(=O)CSC3=O)s2)cc1C
10	Clc1ccc2nc(-c3cccc(SC4CCCCC4)c3)c(NCc3ccccc3)n2c1
11	COc1cc(CNc2ccc(N3CCOCC3)cc2)cc(Br)c1OC
12	Cc1cccc2c1OCC/C2=N\NC(=O)COc1ccccc1
assay / compound	7	8	9	10	11	12
Mtb H37Rv	1%	-14%	4%	.	-9%	2%
Mtb betalactam	50	12	1	-7	-5	1
YopH inh	-32	.	-11	.	.	-14
RecA splice inh	-0.6	-0.8	2.7	-4.4	0.1	3.5
Arbovirus inh	1	0	2	.	5	-2

13	COc1ccccc1CC(=O)Nc1ccc2c(C)cc(=O)oc2c1
14	COc1ccc(C)cc1NC(=O)c1ccc(-c2ccc(C(C)=O)cc2)o1
15	COc1ccc(C(=O)Nc2ccc(NC(=O)Cc3ccccc3)cn2)cc1
16	COCCN=C1OC(=O)N2C(=O)C3=C4[C@@H](C[C@H]5C(=O)N(c6ccccc6)C(=O)[C@H]5[C@H]4[C@@]12Cc1ccccc1)[C@H]1C(=O)N(c2ccccc2)C(=O)[C@H]1[C@H]3C
17	CCCCN(C(=O)CNC(=O)c1ccco1)C(C(=O)NC1CCCCC1)c1cccnc1 (centres undefined)
18	CCCNC(=O)COc1cccc(C(=O)NCc2ccccc2)c1
assay / compound	13	14	15	16	17	18
Mtb H37Rv	.	3%	.	-6%	.	-1%
Mtb betalactam	4	62	-4	-10	-4	-3
YopH inh	.	.	.	.	.	-25
RecA splice inh	-5.6	-2.7	-2.4	1.4	-1.1	1.3
Arbovirus inh	.	-6	.	.	.	-1

19	CC(C)C(=O)N(Cc1cc(=O)[nH]c2ccccc12)c1ccccc1
20	O=C(COc1ccc(F)cc1)Nc1ccc2c(c1)OCCO2
21	C=CCn1c(SCC(=O)c2ccc(F)cc2)nnc1-c1ccc2c(c1)OCO2
22	CC(C)Cc1nc2c(nnn2Cc2ccccc2F)c(=O)[nH]1
23	Cc1cc(C(=O)CN2C(=O)NC3(CCCCC3C)C2=O)c(C)n1Cc1cccs1 (centres undefined)
24	CCc1nnc(N/N=C/c2ccc(N3CCC(C)CC3)c([N+](=O)[O-])c2)n1N
assay / compound	19	20	21	22	23	24
Mtb H37Rv	-7%	.	3%	3%	4%	69%
Mtb betalactam	6	-14	-2	-1	5	99
YopH inh	-38	.	.	.	-29	4
RecA splice inh	-0.7	1.5	-0.7	4.1	-3.9	27
Arbovirus inh	-2	.	-6	.	3	-15

25	CC(C)OCCCN1CN(S(=O)(=O)c2cccs2)c2nc3ccccc3nc21
26	N=c1oc2ccccc2cc1C(=O)Nc1cccc(F)c1
27	Cc1ccccc1OCC(=O)N(Cc1cccs1)C1CCS(=O)(=O)C1 (centres undefined)
28	CCOc1cc(C(=O)Nc2ccc(N3CCN(S(C)(=O)=O)CC3)cc2)cc(OCC)c1OCC
29	O=C(Nc1ccc([N+](=O)[O-])cc1)c1ccccc1F
30	COc1ccc(CCN(C)C(=O)CNC(=O)Cc2cccc3ccccc23)cc1OC
assay / compound	25	26	27	28	29	30
Mtb H37Rv	2%	.	-9%	-13%	-5%	.
Mtb betalactam	-9	1	-17	0	2	0
YopH inh	.	.	7	8	.	.
RecA splice inh	0.1	1.0	-2.3	-1.1	3.9	0.0
Arbovirus inh	.	.	6	0	-5	.

Another view of part of the listing above.
nr	SMILES	Mtb H37Rv	Mtb betalactam	YopH inh	RecA splice inh	Arbovirus inh
26	N=c1oc2ccccc2cc1C(=O)Nc1cccc(F)c1	.	1	.	1.0	.
27	Cc1ccccc1OCC(=O)N(Cc1cccs1)C1CCS(=O)(=O)C1 (centres undefined)	-9%	-17	7	-2.3	6
28	CCOc1cc(C(=O)Nc2ccc(N3CCN(S(C)(=O)=O)CC3)cc2)cc(OCC)c1OCC	-13%	0	8	-1.1	0
29	O=C(Nc1ccc([N+](=O)[O-])cc1)c1ccccc1F	-5%	2	.	3.9	-5
30	COc1ccc(CCN(C)C(=O)CNC(=O)Cc2cccc3ccccc23)cc1OC	.	0	.	0.0	.

More records:
31	CCOc1ccc(S(=O)(=O)N/N=C2/CCCC(=O)C2)cc1
32	COc1ccc(N2CCN(C(=O)COC(=O)CCOc3cc(C)ccc3C)CC2)cc1
33	CC(=O)N1c2ccc(S(=O)(=O)N3CCC(C(=O)NCc4ccccc4Cl)CC3)cc2CC1C (centres undefined)
34	CC(C)C(C(=O)NC1CCCCC1)N(CC1CCCO1)C(=O)CNS(=O)(=O)c1ccc(F)cc1 (centres undefined)
35	CCc1ccc(NC(=O)CSc2nc3ccccc3nc2N2CCCC2)cc1
36	COc1ccc(C2CC2/C(C)=N/OC(=O)C2CC2)cc1 (centres undefined)
assay / compound	31	32	33	34	35	36
Mtb H37Rv	-2%	.	.	2%	.	10%
Mtb betalactam	3	-9	-2	-8	2	17
YopH inh	-10	.	.	-27	.	.
RecA splice inh	-2.0	0.2	1.4	0.8	0.2	-0.5
Arbovirus inh	0	.	.	-11	.	11

37	CCCOc1ccccc1NP(=O)(Oc1ccccc1)Oc1ccccc1
38	CC(C)CN1C(=O)c2ccc(C(=O)Nc3ccncc3)cc2C1=O
39	Oc1ccc(CN2CCN(c3ncccn3)CC2)cc1
40	CC(C)n1cc(/C=C2/NC(=O)N(c3cccc(Cl)c3)C2=O)c2ccccc21
41	COC(=O)C1CN(C(=O)COc2cc(C)c(Cl)c(C)c2)c2ccccc2O1 (centres undefined)
42	CC1CCCN(C(=O)c2ccc(S(=O)(=O)N3CCC(c4nc5ccccc5s4)CC3)cc2)C1 (centres undefined)
assay / compound	37	38	39	40	41	42
Mtb H37Rv	.	4%	.	-1%	.	0%
Mtb betalactam	9	.	-4	-3	37	1
YopH inh	.	-24	.	9	.	-16
RecA splice inh	20	-2.3	-0.4	1.6	5.3	0.1
Arbovirus inh	.	1	.	-21	.	.

43	COc1ccc(CCNC(=O)C(=O)N/N=C/c2cccs2)cc1OC
44	Cc1ccc(OCC(=O)Nc2ccccc2[N+](=O)[O-])c(Br)c1
45	Cc1ccnc(NC(=O)CNC(=O)C23CC4CC(CC(C4)C2)C3)c1
46	O=c1[nH]c2ccccc2cc1CN(Cc1ccco1)S(=O)(=O)c1ccc(F)cc1
47	CCNC(=O)NC(=O)C(C)OC(=O)c1c(C)nn(Cc2ccccc2Cl)c1Cl (centres undefined)
48	O=C(Nc1ccc2oc(-c3ccncc3)nc2c1)c1ccc2c(c1)OCCO2
assay / compound	43	44	45	46	47	48
Mtb H37Rv	5%	3%	.	.	6%	-7%
Mtb betalactam	-6	3	-3	-5	-5	1
YopH inh	.	.	.	.	-30	.
RecA splice inh	-0.8	-0.2	2.2	1.9	0.8	-2.0
Arbovirus inh	-7	-4	.	.	-7	.

49	CCN(Cc1ccccc1)C(=O)Cn1c(C(C)O)nc2ccccc21 (centres undefined)
50	CCC(C)NC(=O)/C=C/c1ccc(S(=O)(=O)NCc2ccco2)cc1 (centres undefined)
51	O=C(Nc1ccc(C(=O)N2CCOCC2)cc1)Nc1cccc2ccccc12
52	CN(/N=C/c1ccc(Br)o1)C1=NS(=O)(=O)c2ccccc21
53	COc1cc(CCC(=O)NCCc2ccc(F)cc2)cc(OC)c1OC
54	O=C(COC(=O)c1ccccc1O)NCCC1=CCCCC1
assay / compound	49	50	51	52	53	54
Mtb H37Rv	5%	4%	4%	3%	.	7%
Mtb betalactam	12	-3	-2	2	-5	1
YopH inh	.	.	.	.	.	.
RecA splice inh	-0.6	1.9	1.3	-12	-2.3	-1.7
Arbovirus inh	1	-3	8	-11	.	4

55	Cc1nn(CCc2nn[nH]n2)c2nc(-c3ccccc3)cc(C(F)(F)F)c12
56	COc1ccc(C(=O)N2CC3(C)CC2CC(C)(C)C3)cc1OC (centres undefined)
57	Cc1cc(NC(=O)c2ccc(Cl)cc2)c(C(C)C)cc1O
58	CCCc1cc(=O)[nH]c(SCc2ccc(F)cc2)n1
59	CCOc1ccc(/C=C2/SC(=S)N(CCC(=O)Nc3ccc(C(=O)O)cc3)C2=O)cc1
60	COc1cc(/C=C2\SC(=S)N(CC(=O)O)C2=O)ccc1OC(=O)c1ccco1
assay / compound	55	56	57	58	59	60
Mtb H37Rv	1%	2%	-5%	-2%	.	.
Mtb betalactam	40	-3	0	-2	-2	3
YopH inh	.	40	-39	.	.	.
RecA splice inh	-0.6	1.0	1.2	-0.2	7.0	19
Arbovirus inh	17	-5	-7	.	.	.

61	CCCN1Cc2cccc(C(=O)NCc3cccs3)c2C1=O
62	COc1ccc(C)cc1NC(=O)CSc1nnnn1C1CCCC1
63	CN(C)S(=O)(=O)c1cccc(COC(=O)c2cnccn2)c1
64	CCC(=O)Nc1ccc(C(=O)N/N=C/c2ccccc2[N+](=O)[O-])cc1
65	O=C(CCCCCN1C(=O)c2ccccc2C1=O)Nc1ccc(C(=O)O)cc1
66	CC1(C)CC(NC(=S)Nc2ccc([N+](=O)[O-])cc2)CC(C)(C)N1
assay / compound	61	62	63	64	65	66
Mtb H37Rv	.	.	.	6%	.	2%
Mtb betalactam	-5	4	-11	-3	13	-8
YopH inh	-32	.	.	-29	.	.
RecA splice inh	0.4	-5.2	3.9	0.1	-6.2	-0.5
Arbovirus inh	0	.	.	3	.	-7

67	COc1ccc(-c2csc(N(Cc3ccco3)C(=O)c3cccs3)n2)cc1
68	CCOC(=O)C1CCN(C(=O)c2cc3c(ccc4ccccc43)o2)CC1
69	O=C(CCS(=O)(=O)c1cc2c(cc1Cl)NC(=O)CO2)NCc1ccc(F)cc1
70	O=C(Cn1c(=O)n(Cc2ccco2)c(=O)c2c3c(sc21)CCCCC3)c1ccccc1
71	COc1ccc(S(=O)(=O)N2CCCCC2)cc1-n1cnnn1
72	CC1C(=O)C(C)C(c2ccc(O)cc2)NC1c1ccc(O)cc1 (centres undefined)
assay / compound	67	68	69	70	71	72
Mtb H37Rv	.	.	.	0%	-5%	.
Mtb betalactam	53	11	-9	42	-7	6
YopH inh	.	.	.	-20	.	.
RecA splice inh	1.1	2.2	0.1	21	-0.6	-1.3
Arbovirus inh	.	.	.	7	5	.

73	CN(C)CCCN(C(=O)COc1ccc(Cl)cc1)c1nc2c(F)cccc2s1
74	Cc1nnc(NC(=O)C2CCCN2C(=O)Nc2ccccc2)s1 (centres undefined)
75	COc1ccc(NC(=O)COc2ccc(N(C)S(=O)(=O)c3ccc(C)cc3)cc2)cc1
76	COc1ccc(C(CC(=O)NCC(OC)OC)NS(=O)(=O)c2ccc(Cl)cc2)cc1 (centres undefined)
assay / compound	73	74	75	76
Mtb H37Rv	-5%	.	2%	1%
Mtb betalactam	-2	-3	7	4
YopH inh	.	.	-44	.
RecA splice inh	1.2	-3.7	2.5	1.3
Arbovirus inh	-2	.	10	5
